Ecoli rRNA inh: inhibits bacterial ribosomal RNA function over humanized ribosomes | E. coli WT GFP vs humanized-ribosome RFP mutants, fluorescence, 24 h; hits give low values; DMSO median 0, no signal -100 | GFP signal change (wild-type ribosome), % (concentration not given with the values) | 1.6% of 350,000 active;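 active = significant combined selectivity score with lowered wild-type GFP, culture density cut under 30%, mutant RFP and density less affected; inactive = any of these conditions unmet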; note: one replicate is shown; some compounds called inactive have numbers as strong as hits
AF4-AF9 inh: blocks AF4 peptide binding to human AF9. P42568. AlphaScreen, biotin-AF4 peptide binding to FLAG-AF9. inhibition, % at 10 µM. 0.47% of 350,000 active. AID 651704;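 active = every replicate reaching a set inhibition limit, whatever the replicate mean, cut at about 25% in these data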;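 note: 0% = plate neutral control median and 100% = total signal loss; the record names both 10 and 1 µM as test concentration; the first replicate is given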
Target sequence (P42568 whole entry, looked up): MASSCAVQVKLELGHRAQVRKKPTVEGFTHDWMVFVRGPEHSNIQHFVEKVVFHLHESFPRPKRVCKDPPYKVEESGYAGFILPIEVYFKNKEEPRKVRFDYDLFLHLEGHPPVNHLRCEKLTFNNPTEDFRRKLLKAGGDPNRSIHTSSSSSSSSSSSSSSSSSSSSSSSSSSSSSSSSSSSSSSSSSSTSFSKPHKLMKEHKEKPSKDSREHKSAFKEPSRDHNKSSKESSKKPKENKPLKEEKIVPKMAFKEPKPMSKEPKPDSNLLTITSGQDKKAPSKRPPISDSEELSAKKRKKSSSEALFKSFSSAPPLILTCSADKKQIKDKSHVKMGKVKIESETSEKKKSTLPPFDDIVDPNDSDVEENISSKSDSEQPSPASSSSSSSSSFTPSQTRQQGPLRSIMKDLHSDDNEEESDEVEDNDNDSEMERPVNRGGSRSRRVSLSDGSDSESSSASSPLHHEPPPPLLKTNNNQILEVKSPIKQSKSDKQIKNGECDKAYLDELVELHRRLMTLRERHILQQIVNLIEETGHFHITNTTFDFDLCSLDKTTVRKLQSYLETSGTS
FGF22 binding: binders of recombinant human FGF22 by thermal shift; AID 651658; Q9HCT0; SYPRO orange fluorescence; percent of sucrose octasulfate shift, DMSO zero; calls only at 9.99 µM; 1.5% of 340,000 active;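 active = melting point raised past a set limit in the mean and every replicate; three in four hits are not shown here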
Target sequence (Q9HCT0 whole entry, looked up): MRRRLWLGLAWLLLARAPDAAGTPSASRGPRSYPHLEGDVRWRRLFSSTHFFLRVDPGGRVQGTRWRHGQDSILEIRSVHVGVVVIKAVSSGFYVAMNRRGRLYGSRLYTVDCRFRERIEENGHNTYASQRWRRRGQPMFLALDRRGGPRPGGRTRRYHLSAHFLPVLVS
Ecoli rRNA inh OD600: second read-out of Ecoli rRNA inh, no call of its own (marks repeat the call); OD600 change, %; measured here: OD600 growth;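 optical density of the mix in the first replicate; 0 = DMSO median and -100 = no signal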
Ecoli rRNA inh RFP: further read-out of Ecoli rRNA inh, marked with its call; RFP signal change, %; measured here: RFP humanized mutant strains;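 first replicate; 0 = DMSO median and -100 = no signal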
An asterisk follows results filed as active; i = inactive; + = active, no number; & = joins results of further samples. Only part of the results is shown; count on the stated rates, not on these rows.

molecule	Ecoli rRNA inh	Ecoli rRNA inh OD600	Ecoli rRNA inh RFP	AF4-AF9 inh	FGF22 binding
COc1ccc(CN2CCC2(C)C(=O)Nc2cccc(NS(C)(=O)=O)c2)c2ccccc12 (stereo not given)	-25.2	-53.5	6.4	-0.7	i
Cc1ccc(S(=O)(=O)Nc2ccc3c(c2)C(=O)N([C@@H](C)CO)C[C@@H](C)[C@H](CN(C)S(=O)(=O)c2cn(C)cn2)OCCCC[C@H](C)O3)cc1	-2.8	0.3	0.3	-3.7	i
O=C(C[C@H]1CC[C@H](NC(=O)C2CCOCC2)[C@H](CO)O1)NCc1ccccc1Cl	0.7	-0.4	0.2	-16.7	i
COc1ccccc1NC(=O)N(C)C[C@@H]1Oc2ncc(C#CC(C)C)cc2C(=O)N([C@@H](C)CO)C[C@H]1C	4.5	-1.3	-3.6	-2.0	i
CC(C)(C)S(=O)(=O)N1C[C@@H]2CC(=O)C=C2[C@H]1CCO	9.0	12.5	6.6	-6.7	i
CCc1cnc(N2[C@H](C#N)[C@H](c3ccc(-c4cccc(F)c4)cc3)[C@@H]2CO)s1	0.9	-17.8	-7.6	-12.2	i
COc1ccc(NC(=O)N[C@@H]2CC[C@H](CCNC(=O)c3cc(Cl)cc(Cl)c3)O[C@H]2CO)cc1	2.3	6.9	-2.4	0.5	i
O=C(C[C@@H]1CC[C@@H]2[C@H](COC[C@@H](O)CN2C(=O)c2ccccc2F)O1)N1CCCCC1	0.6	4.5	6.0	-0.7	i
C[C@@H]1CN([C@@H](C)CO)C(=O)c2cc(NS(C)(=O)=O)ccc2O[C@H]1CN(C)S(C)(=O)=O	2.1	10.5	0.0	-0.9	i
C[C@@H]1CN([C@H](C)CO)C(=O)c2cc(NC(=O)c3ccncc3)ccc2O[C@@H](C)CCCCO[C@H]1CN(C)C	2.7	16.9	-3.5	-2.5	i
C/C=C/c1ccc2c(c1)O[C@H](CN(C)S(=O)(=O)c1ccc(F)cc1)[C@H](C)CN([C@@H](C)CO)S2(=O)=O	-0.6	-3.6	4.7	8.1	i
O=c1[nH][nH]c2c1[C@H](c1ccc(F)cc1)O[C@H](CCC(F)(F)F)C2	1.1	4.3	-2.6	0.9	i
O=C(c1cnccn1)N1CC(=O)N2[C@H](C1)[C@@H](c1ccc(C#CCc3ccccc3)cc1)[C@@H]2CO	0.4	8.1	-7.2	3.1	i
CC1(C(=O)NS(=O)(=O)c2ccc(F)cc2F)CCN1C(=O)Cc1ccccc1Cl (stereo not given)	2.4	8.5	-3.3	1.4	i
C[C@H]1CN([C@@H](C)CO)C(=O)Cc2cc(NC(=O)Nc3ccc(C(F)(F)F)cc3)ccc2O[C@@H]1CN(C)S(=O)(=O)c1ccccc1	3.8	1.4	-0.3	-2.4	i
COCC(=O)N1C[C@H](C)[C@H](OC)CN(C)C(=O)c2cc(NC(=O)c3ccc(OC)cc3)ccc2OC[C@@H]1C	-2.9	-1.4	-1.7	-4.9	i
C[C@@H]1CN([C@H](C)CO)C(=O)c2cc(C#Cc3ccccc3F)cnc2O[C@H]1CN(C)C(=O)Cc1cccnc1	-4.3	-1.1	-0.3	-3.5	i
C[C@@H]1CN([C@H](C)CO)C(=O)Cc2cc(NC(=O)Cc3cn(C)c4ccccc34)ccc2O[C@@H]1CN(C)C(=O)Nc1ccccc1	1.8	-9.6	0.3	0.2	i
CO[C@H]1CN(C)C(=O)c2ccc(NS(=O)(=O)c3ccc(Cl)cc3)cc2OC[C@H](C)N(C(=O)NC(C)C)C[C@H]1C	-1.5	-1.7	-3.4	-0.1	i
CC(C)NC(=O)N[C@@H]1CC[C@@H](CC(=O)NC2Cc3ccccc3C2)O[C@H]1CO	-6.9	-13.9	2.9	-2.8	i
CN1C(=O)c2cc(NC(=O)C3CC3)ccc2OC[C@H]2O[C@H](CC(=O)NCC3CCCCC3)CC[C@H]21	-2.0	-8.9	-0.2	1.1	i
O=C(c1cccc(F)c1)N1CC2(C1)[C@@H](c1ccccc1)[C@@H](CO)N2C(=O)C1CCCCC1	-2.5	8.1	1.9	1.2	i
O=C(NCc1ccco1)c1ccc(-c2ccc3nccn3c2)cc1	4.8	2.5	-2.2	-1.9	i
C[C@H]1CN([C@@H](C)CO)C(=O)c2cccc(NS(C)(=O)=O)c2O[C@H]1CN(C)Cc1ccccc1	1.1	9.2	-2.7	-5.0	i
CCOC(=O)C(=O)N(C)c1c(CC)nc2c(OCc3ccccc3)cccn12	3.5	6.3	0.0	4.7	i
CCCC#Cc1ccc([C@H]2[C@H](CO)N3CCCCN(Cc4ccncc4)C[C@@H]23)cc1	-6.2	13.9	3.8	1.1	i
CC1C=NC(S(=O)(=O)N2CC[C@@H]3[C@@H](CO)N(C)c4ccc(-c5ccccc5)cc4[C@@H]32)=N1 (stereo not given in full)	-2.8	-23.0	1.2	7.7	i
C[C@H](CO)N1C[C@H](C)[C@H](CN(C)C(=O)c2ccccc2)Oc2ncc(C3=CCCC3)cc2C1=O	5.0	9.1	-3.7	0.4	i
O=C(Cc1ccccc1)N1C[C@H]2[C@@H](c3ccccc31)[C@@H](CO)N2S(=O)(=O)c1ccccc1	-7.4	-12.2	1.0	-0.9	i
CN(Cc1ccccc1)C(=O)c1cccc(NC(=O)Cc2ccc(NC(=O)C3CCN(C(=O)C4CCC4)CC3)cc2)c1	4.4	-2.8	2.7	-1.5	i
O=C(N[C@H]1CC[C@@H](CCNS(=O)(=O)c2ccc(F)cc2)O[C@H]1CO)c1cccc(F)c1	-0.7	-4.9	0.9	-1.0	i
CC(C)NC(=O)Nc1ccc2c(c1)C(=O)N([C@H](C)CO)C[C@H](C)[C@H](CN(C)Cc1ccncc1)O2	7.1	14.5	0.0	-2.8	i
C[C@@H]1CCCCO[C@H](CN(C)S(=O)(=O)c2ccc(Cl)cc2)[C@H](C)CN([C@@H](C)CO)C(=O)c2cc(N(C)C)ccc2O1	-6.9	-1.2	3.1	12.7	i
O=C(Nc1cccc(Cl)c1)N1C[C@@H]2[C@H](c3ccccc31)[C@H](CO)N2C(=O)c1ccncc1	-24.8	-3.9	13.1	1.9	i
Nc1cccc(C#Cc2ccc3c(c2)C(=O)/C(=C/c2ccsc2)O3)c1	-15.0	28.0	8.0	4.1	i
CC(=O)N(C)C[C@@H]1Oc2ncc(-c3cncnc3)cc2C(=O)N([C@H](C)CO)C[C@@H]1C	3.4	11.6	-2.8	-3.2	i
C[C@@H]1CN([C@H](C)CO)C(=O)c2cc(C#CC3CCCC3)cnc2O[C@H]1CN(C)Cc1ccncc1	-0.2	1.9	0.8	6.8	i
CCNC(=O)C[C@H]1CC[C@@H]2[C@H](COc3ccc(NC(=O)C4CCOCC4)cc3C(=O)N2C)O1	8.3	10.6	4.1	-0.5	i
C[C@H]1CN([C@@H](C)CO)C(=O)CCCn2nncc2CO[C@@H]1CN(C)S(=O)(=O)c1cn(C)cn1	23.0&1.6	19.7&1.7	2.8&-0.7	-3.7&0.5	i
COCC(=O)N1C[C@@H](C)[C@H](OC)CN(C)C(=O)c2ccc(NC(=O)c3ccc(OC)cc3)cc2OC[C@@H]1C	-1.0	-0.8	-2.4	-1.4	i
COc1ccc(NC(=O)N[C@@H]2CC[C@H](CCNS(=O)(=O)c3cccc(Cl)c3)O[C@@H]2CO)cc1	-2.3	2.2	4.8	4.4	i
C[C@H]1CN([C@@H](C)CO)C(=O)c2cc(NC(=O)C3CC3)ccc2O[C@H]1CN(C)S(=O)(=O)c1ccc(Cl)cc1	0.2	-0.4	1.2	-3.8	i
CC(=O)N1CCN(C(=O)c2cccc(S(=O)(=O)N3CCOCC3)c2)CC1	10.4	16.0	4.3	-2.1	i
CC(=O)c1cccc(NC(=O)C2CCCN2S(=O)(=O)c2cccs2)c1 (stereo not given)	11.2	8.8	3.0	-3.7	+
C[C@H]1CCCCO[C@@H](CN(C)Cc2ccc3c(c2)OCO3)[C@@H](C)CN([C@@H](C)CO)C(=O)c2cc(NC(=O)c3ccncc3)ccc2O1	0.8	4.2	1.8	1.6	i
C/C=C/c1ccc([C@H]2[C@@H](C#N)N(c3nc(CC)cs3)[C@@H]2CO)cc1	-5.4	-26.2	-4.3	-1.6	i
C[C@H]1CN([C@@H](C)CO)C(=O)Cc2cc(NS(C)(=O)=O)ccc2O[C@H]1CN(C)S(=O)(=O)c1cccs1	1.1	4.3	-0.8	0.6	i
CN(C)CC(=O)N[C@H]1CC[C@@H](CC(=O)NCc2ccccc2F)O[C@H]1CO	2.7	0.5	1.0	-3.5	i
Cc1ccc(S(=O)(=O)N(C)C[C@@H]2Oc3c(cccc3N(C)C)C(=O)N([C@H](C)CO)C[C@H]2C)cc1	-8.4	-9.3	0.9	5.6	i
O=C(NCC1CC1)[C@H]1[C@H](CO)[C@H]2Cn3c(cccc3=O)[C@@H]1N2CCc1ccccc1	1.4	8.3	-0.6	-2.6	i
COc1ccc(S(=O)(=O)Nc2cccc3c2O[C@H](CN(C)S(=O)(=O)c2ccc(OC)cc2)[C@H](C)CN([C@H](C)CO)C3=O)cc1	-2.2	-8.1	2.6	1.9	i
O=C(OCc1ccccc1)N1C=CC2CC1c1c(Cl)cccc12 (stereo not given)	-26.0	-43.3	-3.0	-1.2	i
COc1ccccc1OCCCN1CCC(C(O)(c2ccccc2)c2ccccc2)CC1	-16.0	-31.1	-2.5	4.8	i
CC(=O)NC[C@H]1[C@@H](c2ccc(-c3cccc(F)c3)cc2)[C@H](CO)N1C(C)=O	-0.2	1.0	2.7	0.8	i
C[C@H](CO)N1C[C@H](C)[C@@H](CN(C)Cc2ccncc2)Oc2ccc(NC(=O)Cn3cnnn3)cc2CC1=O	-0.5	3.7	-3.9	-1.7	i
O=C1Nc2ccccc2N(C(=O)c2ccc3ccccc3c2)C1c1nc2ccccc2[nH]1 (stereo not given)	-0.3	7.3	4.0	-1.3	i
C[C@@H]1CN([C@@H](C)CO)S(=O)(=O)c2ccc(-c3ccccc3F)cc2O[C@H]1CN(C)S(C)(=O)=O	-1.8	-1.6	-0.9	-0.2	i
O=C(NCC1CCN(Cc2ccccc2)CC1)[C@H]1O[C@@H](n2ccc(=O)[nH]c2=O)[C@H](O)[C@@H]1O	12.2	16.6	5.1	-0.4	i
Cc1ccc(S(=O)(=O)N[C@@H]2CC[C@H](CC(=O)NCCc3ccncc3)O[C@@H]2CO)cc1	4.6	2.7	-0.3	-0.1	i
Cc1ccc(S(=O)(=O)Nc2ccc3c(c2)CC(=O)N([C@@H](C)CO)C[C@H](C)[C@@H](CN(C)Cc2ccc(-c4ccccc4)cc2)O3)cc1	-0.8	-3.8	0.2	1.8	i

Next part
molecule	Ecoli rRNA inh	Ecoli rRNA inh OD600	Ecoli rRNA inh RFP	AF4-AF9 inh	FGF22 binding
CC(C)NC(=O)N(C)C[C@H]1Oc2cc(-c3ccccc3)ccc2S(=O)(=O)N([C@H](C)CO)C[C@@H]1C	-3.7	-4.9	-1.5	-0.2	i
Cc1noc(C)c1NC(=O)N(C)C[C@@H]1OCCCC[C@@H](C)Oc2ccc(NS(=O)(=O)c3c(C)noc3C)cc2C(=O)N([C@@H](C)CO)C[C@H]1C	1.9	8.3	0.8	0.4	i
C[C@H](CO)N1C[C@H](C)[C@@H](CN(C)C(=O)Cc2ccccc2)OCCCC[C@H](C)Oc2ccc(NC(=O)Cc3ccccc3)cc2C1=O	-4.4	-8.2	3.9	2.2	i
O=C(CC(F)(F)F)N1C[C@H]2[C@@H](c3ccccc31)[C@@H](CO)N2C(=O)c1ccncc1	2.0	3.2	0.4	-1.2	i
Cc1noc(C)c1S(=O)(=O)N(C)C[C@@H]1Oc2c(cccc2N(C)C)C(=O)N([C@H](C)CO)C[C@H]1C	-0.1	-0.6	-2.2	-3.1	i

Single records, as listed above:
CC(C)NC(=O)N(C)C[C@H]1Oc2cc(-c3ccccc3)ccc2S(=O)(=O)N([C@H](C)CO)C[C@@H]1C is listed as Ecoli rRNA inh: -3.7; Ecoli rRNA inh OD600: -4.9; Ecoli rRNA inh RFP: -1.5; AF4-AF9 inh: -0.2; FGF22 binding: i
O=C(CC(F)(F)F)N1C[C@H]2[C@@H](c3ccccc31)[C@@H](CO)N2C(=O)c1ccncc1 is listed as Ecoli rRNA inh: 2.0; Ecoli rRNA inh OD600: 3.2; Ecoli rRNA inh RFP: 0.4; AF4-AF9 inh: -1.2; FGF22 binding: i

A different layout for some results above.
Ecoli rRNA inh | Ecoli rRNA inh OD600 | Ecoli rRNA inh RFP | AF4-AF9 inh | FGF22 binding | SMILES
0.6 | 4.5 | 6.0 | -0.7 | i | O=C(C[C@@H]1CC[C@@H]2[C@H](COC[C@@H](O)CN2C(=O)c2ccccc2F)O1)N1CCCCC1
2.1 | 10.5 | 0.0 | -0.9 | i | C[C@@H]1CN([C@@H](C)CO)C(=O)c2cc(NS(C)(=O)=O)ccc2O[C@H]1CN(C)S(C)(=O)=O
2.7 | 16.9 | -3.5 | -2.5 | i | C[C@@H]1CN([C@H](C)CO)C(=O)c2cc(NC(=O)c3ccncc3)ccc2O[C@@H](C)CCCCO[C@H]1CN(C)C

High-throughput results: PubChem BioAssay, Broad Institute
